# mut p53 SMM: binders of human mutant p53, primary screen, biochemical, small molecule microarray, anti-GST fluorescence | small molecule microarray binding | calls only | 17,000 compounds, 0.4% hits;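 active = compounds whose four printed spots each glow above background more than chance allows, each with a p-value under 7%; compounds were printed on slides so no solution concentration is given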;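 note: about 2 pmol printed per array spot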
# ID4 SMM: binders of human ID4 protein, primary screen, biochemical, small molecule microarray, single point. DNA-binding protein inhibitor ID-4 (Homo sapiens), P47928. Flag-ID4 binding, fluorescence F/B. calls only. 31,000 compounds, 1.2% hits. AID 624137, 2012;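 active = spot signal over background at p below 0.07 in all four prints; compounds were printed on slides so no solution concentration is given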;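 note: a binder raises fluorescence above local background on the spot; about 2 pmol printed per array spot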
# Target sequence (P47928 whole entry, looked up): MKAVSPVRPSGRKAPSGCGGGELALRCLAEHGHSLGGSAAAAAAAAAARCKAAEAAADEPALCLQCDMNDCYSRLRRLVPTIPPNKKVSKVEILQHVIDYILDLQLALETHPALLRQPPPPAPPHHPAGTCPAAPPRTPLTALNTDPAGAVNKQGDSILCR
# Myc binder: binders of human c-Myc, primary screen, biochemical, small molecule microarray, anti-His fluorescence; Myc proto-oncogene protein (Homo sapiens), P01106; His-c-Myc binding; calls only; 17,000 compounds, 1.5% hits;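 active = spot fluorescence over background with P-value below 7% in all four replicate spots, showing protein binding; compounds were printed on slides so no solution concentration is given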;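 note: score is binary with 100 for all four spots passing and 0 otherwise; about 2 pmol printed per array spot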
# STAT3 binder: STAT3 binders, primary screen, biochemical, small molecule microarray, single point, set 2; AID 624138, 2012; Signal transducer and activator of transcription 3 (Homo sapiens), P40763; 17,000 compounds, 0.2% hits; calls only; His-STAT3 binding, anti-His fluorescence;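 active = compounds whose four printed spots each show fluorescence over background unusually high for their array block, chance value under 7%; compounds were printed on slides so no solution concentration is given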;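 note: about 2 pmol printed per array spot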
# Target sequence (P40763 whole entry, looked up): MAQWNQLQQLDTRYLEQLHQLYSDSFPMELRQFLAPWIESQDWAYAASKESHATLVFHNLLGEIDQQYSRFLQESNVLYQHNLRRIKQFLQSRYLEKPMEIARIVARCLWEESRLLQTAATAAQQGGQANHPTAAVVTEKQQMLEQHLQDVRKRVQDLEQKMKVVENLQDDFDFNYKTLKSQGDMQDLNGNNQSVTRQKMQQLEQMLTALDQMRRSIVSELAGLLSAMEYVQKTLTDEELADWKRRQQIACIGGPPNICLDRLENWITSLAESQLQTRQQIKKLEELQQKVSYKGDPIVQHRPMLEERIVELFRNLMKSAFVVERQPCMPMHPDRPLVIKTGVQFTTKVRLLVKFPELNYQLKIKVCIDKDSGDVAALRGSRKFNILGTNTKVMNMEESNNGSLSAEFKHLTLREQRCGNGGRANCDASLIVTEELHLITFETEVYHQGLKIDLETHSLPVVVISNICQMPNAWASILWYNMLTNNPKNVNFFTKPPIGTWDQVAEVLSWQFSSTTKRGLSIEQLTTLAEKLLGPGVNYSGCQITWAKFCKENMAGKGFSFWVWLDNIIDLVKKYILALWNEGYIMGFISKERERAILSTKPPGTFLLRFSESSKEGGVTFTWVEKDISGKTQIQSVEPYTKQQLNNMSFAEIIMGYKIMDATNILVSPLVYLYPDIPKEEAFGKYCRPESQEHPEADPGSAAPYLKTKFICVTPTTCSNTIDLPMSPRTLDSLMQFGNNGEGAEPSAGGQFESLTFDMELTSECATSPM
# Calls only; i = inactive; / = no result given; + = active, no number. A portion of the library (hit frequency here may not be typical).
# Values run as follows: mut p53 SMM | ID4 SMM | Myc binder | STAT3 binder
- C=Cc1ccc(O[C@@H]2O[C@H](CO)[C@@H](O)[C@H](O)[C@H]2O[C@@H]2O[C@@H](C)[C@H](O)[C@@H](O)[C@H]2O)cc1
    i | i | i | i
- COc1ccc(NC(=O)Nc2cccc3c2O[C@@H](CN(C)C(=O)Nc2ccccc2)[C@@H](C)CN([C@H](C)CO)C3=O)cc1
    i | i | i | i
- C[C@@H]1CCCCO[C@H](CN(C)Cc2ccncc2)[C@H](C)CN([C@@H](C)CO)C(=O)c2cc(NC(=O)c3ccncc3)ccc2O1
    i | i | i | i
- O=C(N1CCCCC1)[C@]1(Cc2ccccc2)N=C(c2ccc(OCCCO)cc2)O[C@@H]1c1ccccc1
    i | / | i | i
- C[C@H]1CCCCO[C@@H](CN(C)C(=O)Cc2ccccc2)[C@@H](C)CN([C@@H](C)CO)C(=O)c2cc(NC(=O)c3ccncc3)ccc2O1
    i | i | i | i
- O=C(O)c1ccc2cc(-c3ccc(O)c(C45CC6CC(CC(C6)C4)C5)c3)ccc2c1
    i | i | i | i
- C[C@H](CO)N1C[C@H](C)[C@H](CN(C)C(=O)Nc2ccc(F)cc2)Oc2ccc(N(C)C)cc2C1=O
    i | i | i | i
- Cc1noc(C)c1S(=O)(=O)N(C)C[C@@H]1OCCCC[C@H](C)Oc2ccc(NS(C)(=O)=O)cc2C(=O)N([C@H](C)CO)C[C@@H]1C
    i | i | i | i
- Cc1noc(C)c1S(=O)(=O)Nc1cccc2c1O[C@H](CN(C)C(=O)Nc1ccccc1)[C@H](C)CN([C@H](C)CO)C2=O
    i | i | i | i
- COc1ccc(C#Cc2ccc3c(c2)[C@]2(C(=O)N3)[C@H](c3ccc(O)cc3)N3[C@H](c4ccccc4)[C@H](c4ccccc4)OC(=O)[C@H]3[C@@H]2C(=O)N2CCN(c3ncccn3)CC2)cc1
    i | i | i | i
- Cc1cccc(C)c1N(CC(=O)N1CCN(C)CC1)S(C)(=O)=O
    i | i | i | i
- C/C(=C\CC[C@H](CO)[C@@H]1CC[C@]2(C)C3=C(CC[C@@]12C)[C@@]1(C)CCC(=O)C(C)(C)C1CC3)C(=O)O (stereo partly drawn)
    i | i | i | i
- C[C@@H]1CCCCO[C@H](CN(C)C(=O)CCC(F)(F)F)[C@H](C)CN([C@@H](C)CO)C(=O)c2cc(NS(=O)(=O)c3ccccc3)ccc2O1
    i | i | i | i
- C[C@H]1CN([C@@H](C)CO)C(=O)c2cccc(NS(=O)(=O)c3ccccc3)c2O[C@H]1CN(C)C
    i | i | i | i
- C[C@H]1CN([C@@H](C)CO)C(=O)c2cc(NC(=O)Nc3ccc(F)cc3)ccc2O[C@@H]1CN(C)C
    i | i | i | i
- Cc1noc(C)c1NC(=O)Nc1cccc2c1O[C@H](CN(C)Cc1ccc(Cl)c(Cl)c1)[C@@H](C)CN([C@H](C)CO)C2=O
    i | i | i | i
- COC(=O)c1cccc2oc3cc(CO)cc(O)c3c(=O)c12
    i | i | i | i
- CNC[C@H]1OCCCC[C@H](C)Oc2ccc(NS(=O)(=O)c3c(C)noc3C)cc2C(=O)N([C@@H](C)CO)C[C@@H]1C
    i | i | i | i
- COc1ccccc1N1CCN(C(=O)CSc2nc3ncnc(N)c3[nH]2)CC1
    i | i | i | i
- Cc1ccc(OC(=O)N(C)C[C@H]2OCc3cn(nn3)CCCC(=O)N([C@@H](C)CO)C[C@@H]2C)cc1
    i | i | i | i
- Cn1c(Cc2cccc3ccccc23)nnc1SCc1ccccc1C#N
    i | i | i | i
- CCOC(=O)C12CC1/C(=N/O)c1ccccc1O2 (stereo not drawn)
    i | i | i | i
- Cc1ccc(S(=O)(=O)Nc2cccc(C(=O)NC(C)(C)CO)c2)cc1
    i | i | i | i
- Nc1nc(CN2CCN(C(=O)c3ccco3)CC2)nc(N2CCCc3ccccc32)n1
    i | i | i | i
- C[C@@H]1CN([C@H](C)CO)C(=O)c2cccc(NC(=O)c3ccc(-c4nccs4)cc3)c2O[C@H]1CN(C)CC1CC1
    i | i | i | i
- COc1ccc(S(=O)(=O)N(C)C[C@H]2Oc3c(NC(=O)c4ccncc4)cccc3C(=O)N([C@H](C)CO)C[C@@H]2C)cc1
    i | i | i | i
- Cn1c(=O)c2c(ncn2CC(=O)Nc2ccccc2Sc2ccccc2)n(C)c1=O
    i | i | i | i
- N#Cc1ccccc1NC(=O)CCSc1nc(-c2ccccc2)c2cc(Cl)ccc2n1
    i | i | i | i
- COc1ccccc1CN1C(=O)c2ccccc2[C@@H](C(=O)NCc2ccccc2)[C@@H]1c1ccc(CO)cc1
    i | i | i | i
- C[C@H](CO)N1C[C@H](C)[C@H](CN(C)S(=O)(=O)c2ccc3ccccc3c2)OCc2cnnn2CCCC1=O
    i | i | i | i
- CC(C)NC(=O)N(C)C[C@@H]1Oc2ccc(NC(=O)CCC(F)(F)F)cc2CC(=O)N([C@@H](C)CO)C[C@H]1C
    i | i | i | i
- Cc1cc(=O)[nH]c(SCC(=O)Nc2cccc3ccccc23)n1
    i | i | i | i
- CC(C)NC(=O)Nc1ccc2c(c1)C(=O)N([C@@H](C)CO)C[C@H](C)[C@H](CN(C)S(=O)(=O)c1cccs1)OCCCC[C@H](C)O2
    i | i | i | i
- Cc1noc(C)c1S(=O)(=O)Nc1ccc2c(c1)C(=O)N([C@H](C)CO)C[C@@H](C)[C@@H](CN(C)Cc1ccncc1)OCCCC[C@@H](C)O2
    i | / | i | i
- C[C@@H]1CN([C@H](C)CO)C(=O)c2cccc(NC(=O)Nc3ccc(F)cc3)c2O[C@H]1CN(C)Cc1ccc(C(F)(F)F)cc1
    i | i | i | i
- COc1ccc(NC(=O)Nc2ccc3c(c2)C(=O)N([C@H](C)CO)C[C@H](C)[C@@H](CN(C)S(=O)(=O)c2ccc(OC)cc2)O3)cc1
    i | i | i | i
- Cc1noc(C)c1NC(=O)Nc1cccc2c1O[C@@H](CN(C)Cc1ccncc1)[C@H](C)CN([C@@H](C)CO)C2=O
    i | i | i | i
- C[C@@H]1CN([C@@H](C)CO)C(=O)Cc2cc(NC(=O)CCN3CCOCC3)ccc2O[C@@H]1CN(C)Cc1ccc(-c2ccccc2)cc1
    i | i | i | i
- COc1ccc(OC)c(NC(=O)CSc2nnc(-c3ccccc3)n2C)c1
    i | i | i | i
- C[C@@H]1CN([C@H](C)CO)C(=O)c2cccc(NC(=O)NC3CCCCC3)c2O[C@@H]1CN(C)Cc1ccc(C(=O)O)cc1
    i | i | i | i

# 4 entries already listed, sorted by count of non-hydrogen atoms, lowest first:
# Values run as follows: mut p53 SMM | ID4 SMM | Myc binder | STAT3 binder
- CCOC(=O)C12CC1/C(=N/O)c1ccccc1O2 (stereo not drawn)
    i | i | i | i
- Cc1ccc(S(=O)(=O)Nc2cccc(C(=O)NC(C)(C)CO)c2)cc1
    i | i | i | i
- C[C@@H]1CN([C@H](C)CO)C(=O)c2cccc(NC(=O)c3ccc(-c4nccs4)cc3)c2O[C@H]1CN(C)CC1CC1
    i | i | i | i
- COc1ccc(S(=O)(=O)N(C)C[C@H]2Oc3c(NC(=O)c4ccncc4)cccc3C(=O)N([C@H](C)CO)C[C@@H]2C)cc1
    i | i | i | i

# Carrying on:
# Values run as follows: mut p53 SMM | ID4 SMM | Myc binder | STAT3 binder
- C[C@H]1CN([C@@H](C)CO)C(=O)c2cc(NS(=O)(=O)c3cn(C)cn3)ccc2O[C@@H]1CN(C)C(=O)Nc1ccc(F)cc1
    i | i | i | i
- CNC[C@@H]1Oc2c(NC(=O)c3cc(C)nn3C)cccc2C(=O)N([C@@H](C)CO)C[C@@H]1C
    i | i | i | i
- COC(=O)c1ccc(CSc2nnc(CN3CCOCC3)n2C)cc1
    i | i | i | i
- C[C@@H]1CCCCO[C@H](CN(C)C(=O)CCC(F)(F)F)[C@H](C)CN([C@@H](C)CO)C(=O)c2cc(NC(=O)Nc3ccc4c(c3)OCO4)ccc2O1
    i | i | i | i
- CCOc1cccc2cc(C(=O)NCc3cccnc3)c(=O)oc12
    i | i | i | i
- C[C@@H]1CN([C@@H](C)CO)C(=O)CCCn2nncc2CO[C@H]1CN(C)C(=O)Nc1ccccc1F
    i | + | i | i
- CCO[C@H]1OC(C(=O)N2CCN(C)CC2)=C[C@@H](c2ccc(C(F)(F)F)cc2)[C@@H]1CCCO
    i | i | i | i
- Cc1ccccc1-c1nnc(SCC(=O)Nc2ccc(Oc3ccccc3)cc2)n1C
    i | i | i | i
- COc1ccccc1CC(=O)Nc1cc(Cl)ccc1O
    i | i | i | i
- CNC[C@@H]1OCCCC[C@@H](C)Oc2ccc(NS(C)(=O)=O)cc2C(=O)N([C@H](C)CO)C[C@@H]1C
    i | / | i | i
- COc1ccc(NC(=O)Cn2c(-c3ccccc3)nc3sc4c(c3c2=O)CCCC4)cc1
    i | i | i | i
- CCn1ncc(Br)c1C(=O)Nc1ccccc1C(=O)OC
    i | i | i | i
- CCOC(=O)CN(C)C1=NS(=O)(=O)c2ccccc21
    i | i | i | i
- CSc1ccccc1-n1nnnc1SCCSc1ccccc1-n1nnnc1SC
    i | i | i | i
- C[C@H](CO)N1C[C@H](C)[C@H](CN(C)C(=O)Nc2ccc3c(c2)OCO3)Oc2ccc(NC(=O)Nc3ccc4c(c3)OCO4)cc2C1=O
    i | i | i | i
- C[C@H]1CCCCO[C@@H](CN(C)C)[C@@H](C)CN([C@@H](C)CO)C(=O)c2cc(NC(=O)CCCN(C)C)ccc2O1
    i | i | i | i
- COc1ccc(NC(=O)c2ccc(OC(C)C(=O)O)cc2)cc1Cl (stereo not drawn)
    i | + | i | i
- C[C@@H]1CN([C@H](C)CO)C(=O)Cc2cc(N(C)C)ccc2O[C@H]1CN(C)C(=O)Nc1cccc2ccccc12
    i | i | i | i
- C[C@H](CO)N1C[C@H](C)[C@H](CN(C)Cc2ccncc2)Oc2ccc(NC(=O)Nc3ccc4c(c3)OCO4)cc2C1=O
    i | i | i | i
- C[C@H](CO)N1C[C@H](C)[C@@H](CN(C)C(=O)Nc2ccc3c(c2)OCO3)Oc2ccc(N(C)C)cc2C1=O
    i | i | i | i
- C[C@@H]1CCCCO[C@H](CN(C)C(=O)Nc2ccccc2)[C@H](C)CN([C@H](C)CO)C(=O)c2cc(NC(=O)Cc3ccccc3)ccc2O1
    i | i | i | i
- C[C@@H]1CN([C@@H](C)CO)C(=O)c2cccc(NC(=O)c3ccc(-c4nccs4)cc3)c2O[C@@H]1CN(C)C(=O)NC1CCCCC1
    i | i | i | i
- CCO[C@H]1OC(C(=O)N2CCOCC2)=C[C@@H](c2ccc3c(c2)OCO3)[C@@H]1CCCO
    i | / | i | i
- C[C@H](CO)N1C[C@H](C)[C@H](CN(C)S(=O)(=O)c2cn(C)cn2)Oc2ccc(NC(=O)C3CC3)cc2CC1=O
    i | i | i | i
- CC(C)NC(=O)Nc1ccc2c(c1)CC(=O)N([C@@H](C)CO)C[C@H](C)[C@H](CN(C)Cc1ccc(-c3ccccc3)cc1)O2
    i | i | i | i
- COc1ccc(S(=O)(=O)N(C)C[C@@H]2Oc3ccc(NC(=O)Nc4ccc(C(F)(F)F)cc4)cc3CC(=O)N([C@@H](C)CO)C[C@@H]2C)cc1
    i | i | i | i
- CC(Sc1nc2ccccc2[nH]1)c1nc2ccccc2[nH]1 (stereo not drawn)
    i | i | i | i
- Cc1ccc(NC(=O)COc2ccc(I)cc2)c(C(=O)O)c1
    i | i | i | i
- CC(C)(C)NS(=O)(=O)c1ccc(OCC(=O)N2CCOCC2)cc1
    i | i | i | i
- Cc1noc(C)c1NC(=O)N(C)C[C@@H]1Oc2c(NC(=O)Nc3ccccc3)cccc2C(=O)N([C@H](C)CO)C[C@H]1C
    i | / | i | i
- C[C@@H]1CN([C@H](C)CO)C(=O)CCCn2cc(nn2)CO[C@@H]1CN(C)C(=O)Nc1ccccc1C(F)(F)F
    i | i | i | i
- Oc1cc(O)c2c(c1)OC(c1ccc(O)c(O)c1)C(O)C2 (stereo not drawn)
    i | i | i | i
- C[C@H](CO)N1C[C@H](C)[C@@H](CN(C)C(=O)Nc2ccc(F)cc2)Oc2ccc(NC(=O)C3CC3)cc2CC1=O
    i | i | i | i
- Cc1noc(C)c1S(=O)(=O)Nc1ccc2c(c1)C(=O)N([C@@H](C)CO)C[C@@H](C)[C@H](CN(C)C(=O)NC(C)C)OCCCC[C@@H](C)O2
    i | i | + | i
- O=C(N1CCCCC1)[C@]1(CCS(=O)(=O)c2ccccc2)N=C(c2ccc(OCCCO)cc2)O[C@@H]1c1ccccc1
    i | / | i | i
- C[C@@H]1CN([C@H](C)CO)C(=O)Cc2cc(NS(=O)(=O)c3ccccc3)ccc2O[C@H]1CN(C)S(=O)(=O)c1ccccc1
    i | / | i | i
- C[C@@H]1CN([C@H](C)CO)C(=O)c2cccc(NS(=O)(=O)c3ccccc3)c2O[C@H]1CN(C)C(=O)Nc1ccc(C(F)(F)F)cc1
    i | i | i | i
- O=C(C1=C[C@H](c2ccc(Br)cc2)C[C@H](OCCCCO)O1)N1CCN(Cc2ccccc2)CC1
    i | / | i | i

# High-throughput results deposited in PubChem BioAssay by Broad Institute.
